VDR inhibitor = blocks the human vitamin D receptor. Potency, µM, inactives show max response, negative = inhibition, hits mostly inhibitors. VDR-SRC2-3 peptide fluorescence polarization, 2 h. P11473. AID 504847. actives 0.93% (n = 400,000); active means well fitted inhibition curve with a large enough effect; inconclusive means small, poorly fitted or top-dose-only effect, or another doubt; inactive means no such curve, though single readings can be large or run the other way; further: series mostly up to about 120 µM
Target sequence (P11473 whole entry, looked up): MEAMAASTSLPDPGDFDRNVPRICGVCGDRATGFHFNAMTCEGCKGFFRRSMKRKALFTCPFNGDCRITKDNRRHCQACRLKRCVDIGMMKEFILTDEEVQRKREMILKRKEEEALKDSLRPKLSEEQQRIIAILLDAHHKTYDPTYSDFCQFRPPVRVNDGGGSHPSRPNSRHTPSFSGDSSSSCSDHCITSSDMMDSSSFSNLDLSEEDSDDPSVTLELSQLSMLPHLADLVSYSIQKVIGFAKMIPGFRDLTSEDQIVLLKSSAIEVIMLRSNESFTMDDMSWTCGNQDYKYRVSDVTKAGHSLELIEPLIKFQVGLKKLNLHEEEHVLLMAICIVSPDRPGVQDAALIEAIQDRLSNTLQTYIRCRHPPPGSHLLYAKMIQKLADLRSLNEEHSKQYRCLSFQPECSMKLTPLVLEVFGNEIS
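Measured by FP: displacement of SRC2-3 coactivator peptide from VDR by library compounds, following a two-hour ambient incubation.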
The depositor's hits bear a star; ? = inconclusive; & = joins results of further samples. On the % scale 0 is the no-effect control and ±100 the full control effect; potency means the concentration at half of the fitted maximal effect. Not all compounds are listed; rates above refer to the full screens.

SMILES	VDR inhibitor
Cc1cc(Cl)ccc1NS(=O)(=O)c1ccc2c(c1)CC(C)N2C(=O)C1CCC1 (configuration not stated)	10%
Cc1ccc(N2C(=O)CCC2=O)c(C)c1	-10%
CCCn1c2ccccc2c2cnn(CC(=O)N3CCC(C(=O)OCC)CC3)c(=O)c21	8%
COc1ccc(NC(=O)C(F)(F)F)cc1OC	5%
CCOc1ccc(NC(=O)COC(=O)CCS(=O)(=O)c2ccc(C)cc2)cc1	-16%
COC(=O)c1cc(C#N)c(Oc2ccccc2OC)nc1C	-15%
CCNC1CCC(Nc2ccnc3cc(Cl)ccc23)CC1 (configuration not stated)	7%
CN(CCC1CCOCC1)Cc1cn[nH]c1-c1ccc(-c2ccccc2)cc1	5%
CCn1cc(C(=O)N2CCc3ccccc32)c(=O)c2cc(S(=O)(=O)N3CCCC3)ccc21	-9%
O=C(c1cc(C2CC2)nc2ccc(Br)cc12)N1N=C(C(F)F)CC1(O)C(F)F (configuration not stated)	-18%
COc1ccc(-c2cc(C(F)(F)F)c(C#N)c(SCC(=O)Nc3ccccc3C#N)n2)cc1	3%
CNC(=S)/N=C/NOCc1c(Cl)cccc1Cl	3%
O=C(/C=C/c1cccc([N+](=O)[O-])c1)OC1CCCCC1=O (configuration not stated)	-12%
CCOc1cccc2cc(C(=O)NCc3ccccc3Cl)c(=O)oc12	-12%
CCOc1ccc(CCNCc2c(C(=O)O)c(C)n(Cc3ccccc3F)c2C)cc1	1%
O=C(Nc1cc(Sc2nc3ccccc3s2)cc([N+](=O)[O-])c1)c1ccccc1	8%
CC1(C)CCC(=O)N2CC[C@H]3C[C@H](OC(=O)Nc4ccc(Br)cc4)C[C@@H]1[C@H]32	-2%
CCOC(=O)c1ccc(N[C@@H]2CCN3C(=O)c4ccccc4[C@@H]3C[C@H]2O)cc1	-7%
CC(=O)Nc1ccc(NC(=O)c2c(C)c(-c3ccccc3)nc3ccccc23)cc1	2%
O=C(CCc1ccccc1)Nc1ccc2c(c1)OCCO2	9%
CCCc1nc(SCC(=O)NC2CCCC2)c2ccccc2n1	10%
NC(=O)N/N=C/c1ccccc1OC(=O)c1ccccc1Br	-8%
Cc1ccc(S(=O)(=O)NCc2ccccc2)cc1C(=O)N1CCN(c2ccccc2)CC1	8%
Cc1ccc(NC(=O)C2C3C=CC(O3)C2C(=O)O)c(C)c1 (configuration not stated)	-4%
Cc1ccc(C(=O)NCCC2=CCCCC2)cc1S(=O)(=O)N1CCOCC1	-10%

A second format for part of the listing above:
VDR inhibitor	smiles
-12%	CCOc1cccc2cc(C(=O)NCc3ccccc3Cl)c(=O)oc12
1%	CCOc1ccc(CCNCc2c(C(=O)O)c(C)n(Cc3ccccc3F)c2C)cc1
8%	O=C(Nc1cc(Sc2nc3ccccc3s2)cc([N+](=O)[O-])c1)c1ccccc1
-2%	CC1(C)CCC(=O)N2CC[C@H]3C[C@H](OC(=O)Nc4ccc(Br)cc4)C[C@@H]1[C@H]32

Reprinted at random: 4 entries already listed, in no set order.
SMILES	VDR inhibitor
CCOc1ccc(NC(=O)COC(=O)CCS(=O)(=O)c2ccc(C)cc2)cc1	-16%
Cc1cc(Cl)ccc1NS(=O)(=O)c1ccc2c(c1)CC(C)N2C(=O)C1CCC1 (configuration not stated)	10%
CCNC1CCC(Nc2ccnc3cc(Cl)ccc23)CC1 (configuration not stated)	7%
CNC(=S)/N=C/NOCc1c(Cl)cccc1Cl	3%

Remaining list, next part.
SMILES	VDR inhibitor
Cc1cc(S(=O)(=O)N2CCCCC2)ccc1OCC(=O)Nc1ccccc1	-5%
NS(=O)(=O)c1ccc(N=Nc2c[nH]c(=O)c(O)c2)cc1	?
O=C(O)c1ccc(NN=CC2=C(N3CCOCC3)/C(=C/c3ccccc3)CC2)cc1	?
COc1cc(C)c(NC(=O)C(=S)NCc2ccccc2)cc1C	-21%
CCOC(=O)c1ccccc1NC(=O)CSc1nc2ccccc2o1	-9%
COc1cc(OC)nc(NC(=O)CSc2nc3ccccc3[nH]2)n1	0%
COCCCN(C(=S)Nc1cc(C)cc(C)c1)C(C)c1ccncc1 (configuration not stated)	-12%
Cc1cc(O)ccc1Nc1nc(-c2cccs2)cs1	0%
COc1ccc(-c2nnc(-c3ccc(F)cc3)o2)cc1	-23%
C=CCNc1ccc(N2C(=O)CCCC2=O)cc1[N+](=O)[O-]	0%
CC(C)c1ccc(NC(=O)CN(C)S(=O)(=O)c2ccc3c(c2)c(=O)n(C)c(=O)n3C)cc1	-7%
CCOC(=O)c1cc(C)nc(SC)c1C#N	1%
Cc1oc2ncn(CC(C)C)c(=O)c2c1C(=O)NCCCN1CCCCC1	3%
CCOC(=O)c1ccccc1NC(=O)Cn1cnc2c(cnn2-c2ccc(F)cc2)c1=O	17%
S=C(Nc1ccc(OCc2ccccc2)cc1)Nc1cccc(Cl)c1Cl	-12%
COc1ccc(CC(=O)N/N=C/c2sccc2C)cc1	-7%
COc1ccc(OC)c(CNC(=O)CCCn2ccc3cc(S(=O)(=O)N4CCCC4)ccc32)c1	-18%&12%
Cc1oc(-c2ccccc2)nc1CS(=O)CC(=O)O (configuration not stated)	-24%
COC(=O)Cn1c(C)nc([N+](=O)[O-])c1Br	-13%
Cc1[nH]c2ccccc2c1C(=O)COC(=O)Cn1c(C)nc2ccccc21	3%
c1ccc2c(c1)nc(Nc1ccc(N3CCCCC3)cc1)c1nncn12	-17%
COc1ccc(CNC(=O)[C@H](C)NC(=O)N2CCn3c2nc2ccccc23)cc1	21%
CCn1c2ccccc2c2cc(CN3CCN(Cc4cc(OC)c(O)c(OC)c4)CC3)ccc21	-15%
CCCCP(=O)(CCCC)CCP(=O)(c1ccccc1)c1ccccc1	12%
CCOC(=O)c1ccc(CN(Cc2ccc(Cl)cc2Cl)S(=O)(=O)c2cccc(Cl)c2)cc1	12%

Ordered by value in VDR inhibitor (highest first): 3 from the list above
SMILES	VDR inhibitor
CCOC(=O)c1ccccc1NC(=O)Cn1cnc2c(cnn2-c2ccc(F)cc2)c1=O	17%
COCCCN(C(=S)Nc1cc(C)cc(C)c1)C(C)c1ccncc1 (configuration not stated)	-12%
Cc1oc(-c2ccccc2)nc1CS(=O)CC(=O)O (configuration not stated)	-24%

The results go on.
SMILES	VDR inhibitor
COc1nc(-c2ccc(C)cc2)ccc1-c1noc(-c2ccc(C(C)(C)C)cc2)n1	0%
O=C(N/N=C1/CC(c2ccccc2)Oc2ccccc21)C1CC1 (configuration not stated)	-5%
Cc1ccc(-n2c(-c3ccncc3)nnc2-c2ccco2)cc1	-3%
Cc1ccc([N+](=O)[O-])cc1N(CC(=O)Nc1ccc(S(=O)(=O)Nc2cccc(C(F)(F)F)c2)cc1)S(C)(=O)=O	11%
O=C(Nc1cc(Cl)ccc1-n1cncn1)c1ccc(F)c(S(=O)(=O)N2CCOCC2)c1	11%
COCCCNC(=O)CN1C(=O)c2c(c3ccccc3n2C)C1c1ccc(OC)cc1 (configuration not stated)	8%
CC(=O)Nc1nonc1-c1nnc(SCc2ccccc2F)n1C	14%
CCOC(=O)N1CCN(C(=O)CSC2=NS(=O)(=O)c3cc(F)ccc3N2)CC1	-2%
N#Cc1c(-c2ccccc2)nc(SCc2ccc(Cl)cc2)[nH]c1=O	79µM*
Cc1ccc(CSc2nc3ccncc3n2CC(=O)Nc2cc(C)cc(C)c2)cc1	-12%
Cc1ccc(NC(=O)Cn2c(=O)ccn(Cc3ccccc3)c2=O)cc1S(=O)(=O)N1CCOCC1	-12%
CC(=O)Nc1cccc(NC(=O)CCn2cnc3cc(C)c(C)cc32)c1	-8%
Cc1ccc(-n2nc3c(=O)n(C(C)C(=O)O)nc(C)c3c2C)cc1 (configuration not stated)	-7%
Cc1cccc(OCC(=O)Nc2ccc3oc(=O)ccc3c2)c1C	21%
Cn1c(=O)cc(N2CCc3ccccc32)[nH]c1=O	-24%
Cc1ccnc(N2C(=O)c3ccccc3C2Nc2cccc(C)c2C)c1 (configuration not stated)	-19%
COc1ccccc1/C=C(\NC(=O)c1ccc(OC)c(OC)c1)C(=O)Nc1cccc([N+](=O)[O-])c1	-5%
CCc1nc(N2CCOCC2)c(C#N)c2c1COC(C)(C)C2	12%
CCN(CCO)Cc1csc2cc(C)ccc12	-5%
CCCCOC(=O)c1ccc(NC(=O)C(=O)NCc2ccccn2)cc1	-1%
COc1ccc(NC(=O)C2CCC(CNS(=O)(=O)c3cccs3)CC2)cc1 (configuration not stated)	-10%
CC(Oc1ccc(Cl)cc1Cl)C(=O)OCn1nnc2ccccc2c1=O (configuration not stated)	-15%
O=C(/C(C=Nc1cc2c(oc1=O)CCCC2=O)=C(\O)c1ccccc1)c1ccccc1	3%
COc1cccc(OCc2cc(/C=N/Nc3ccc(C(=O)O)cc3)ccc2OC)c1	-20%
CCC(C)(C)NC(=O)CN(C(=O)c1csnn1)c1cccc2c1CCCC2	-7%

Later entries.
SMILES	VDR inhibitor
N#C/C(=C/c1ccc(-c2cccc([N+](=O)[O-])c2)o1)C(=O)Nc1nc(-c2cccs2)cs1	30%
O=C(COC(=O)c1ccc(O)cc1)Nc1ccccc1-c1ccccc1	-11%
CCCCC(=O)NC1=C(C(=O)OC)SCC1	-4%
CCOC1=C/C(=C/c2c(N)n3nc(-c4ccccc4)sc3nc2=O)C=CC1=O	26%
CC(C)CN(C(=O)COC(=O)Cc1n[nH]c(=O)c2ccccc12)C1CCS(=O)(=O)C1 (configuration not stated)	8%
CCOC(=O)c1c(C)[nH]c(C)c1C(=O)CSc1nnnn1-c1ccccc1	1%
COc1cc2c(cc1OC)-c1cc3ccc(OC)c(OC)c3c[n+]1CC2	2%&-1%&-3%
CCOC(=O)c1sc(NC(=O)c2cc(CC)on2)c(C(=O)OCC)c1C	-11%
CCc1ccc(OCc2ccc(C(=O)O)o2)cc1	3%
Cc1ccc(C)c(C(=O)CCC(=O)NNC(=O)c2cccs2)c1	13%
CCc1nnc(NC(=O)c2cccs2)s1	-18%
Cc1[nH]c2ccc(Br)cc2c1CCNC(=O)c1cc2ccccc2oc1=O	-4%
CCOC(=O)C1CCCN(S(=O)(=O)c2ccc(Cl)nc2)C1 (configuration not stated)	-18%
CN1C(=O)C(=O)/C(=C(/O)c2ccc(Br)cc2)C1c1ccccc1F (configuration not stated)	0%
CC(C(=O)N1CCc2ccccc21)N1CCN(c2ccccn2)CC1 (configuration not stated)	3%
CCOC(=O)Cc1cc(=O)n2[nH]c(C)c(-c3ccccc3OC)c2n1	-4%
O=C(CSc1nc(=O)n(CCN2CCOCC2)c2c1CCCC2)Nc1ccc(F)cc1F	0%
Cc1ccccc1-n1c(SC(C)C(=O)NCC2CCCO2)nnc1-c1ccncc1 (configuration not stated)	7%
COc1cc(/C=N/Nc2ccc(S(N)(=O)=O)cc2)cc(OC)c1OC	-2%
COC(=O)c1sccc1NC(=O)c1ccccc1[N+](=O)[O-]	-13%
CCc1cccc(NC(=S)N(CCN(C)C)C2CCN(C(C)C)CC2)c1	-22%
Cc1ccc(N2CC(NC(=O)Cc3ccc(F)cc3)CC2=O)cc1C (configuration not stated)	7%
COc1ccc(OC)c(S(=O)(=O)NCCCn2ccnc2)c1	-13%
Clc1ccc(N2CCN(/N=C/c3ccncc3)CC2)cc1	-1%
CCC1CN(S(=O)(=O)c2cc(-c3cc(C)no3)ccc2OC)c2cc(Cl)ccc2O1 (configuration not stated)	-2%

Next records
SMILES	VDR inhibitor
COc1ccccc1CNC(=O)c1c(O)nc2c(C)cccn2c1=O	0%
COc1ccc(CC(=O)NCc2nnc(SCC(=O)N3CCN(c4ccccc4)CC3)n2C)cc1	10%
CCOc1ccc(/C=C/C(=O)Nc2sc3c(c2C(=O)OC)CCC3)cc1	-10%
COC(=O)[C@]1(C)N[C@H](c2ccc(-c3ccccc3)cc2)[C@@H]2C(=O)N(C)C(=O)[C@@H]21	-19%
CCOC(=O)c1ccc(NC(=O)c2ccc(=O)n(Cc3cccc(C)c3)c2)cc1	-2%
Cc1ccc(C(=O)Nc2cccc3[nH]c(C(F)(F)F)nc23)cc1	5%
CCCC(=O)Nc1cc(C)c(NC(=O)c2ccncc2)cn1	-10%
CCC(=O)NC(Nc1sc2c(c1C(=O)OC)CCC2)C(Cl)(Cl)Cl (configuration not stated)	-18%
CSc1ncccc1C(=O)Nc1nnc(C2CC2)s1	4%
COc1ccc(/C=C2\Oc3cc(OCC(=O)N4CC(O)C[C@H]4C(=O)O)ccc3C2=O)cc1OC (some centres not stated)	-14%
O=C1c2ccc3c4c(ccc(c24)C(=O)N1NC(=O)C(F)(F)F)CC3	-6%
Cc1c(Cl)ccc2sc(N3CCN(C(=O)CS(=O)(=O)c4ccccc4)CC3)nc12	9%
COc1cc(/C=C/C(=O)OCC(=O)NC2CC2)cc(S(=O)(=O)N2CCc3ccccc32)c1OC	-6%
O=C(NCCCn1ccnc1)Nc1cccc(Cl)c1	5%
Cc1cc(=O)oc2cc(OCC(=O)N3CC[C@@]4(O)CCCC[C@H]4C3)c(Cl)cc12	23%
O=C(COC(=O)c1sc2ccccc2c1Cl)NC1CCCCC1	-2%
CCOC(=O)c1ccc(NC(=O)CSc2nc3ccccc3c(=O)n2CCC(=O)NC2CCCCC2)cc1	13%
COc1cc(OC)c(N(C)S(=O)(=O)c2cccc(C(=O)OCC(=O)N3CCOCC3)c2)cc1Cl	-9%
COCC(=O)N(C)C[C@H]1N[C@@](C)(C(=O)OC)[C@H]2C(=O)N(C)C(=O)[C@@H]12	-2%
Cc1ccc(S(=O)(=O)N2CCN(C(=O)c3n[nH]c4ccccc34)CC2)cc1	22%
Cc1ccc(S(=O)(=O)NNC(=S)NC(C)(C)C)cc1	-4%
COC(=O)c1ccc2c(=O)n(CCCCCC(=O)N3CCN(c4ccc(OC)cc4)CC3)c(=O)[nH]c2c1	15%
Cc1nnc(NC(=O)C(C)Sc2nnc(CNC(=O)c3ccccc3F)n2C)s1 (configuration not stated)	-8%
C=CCOC(=O)C1=C(C)Nc2nnnn2C1c1cc(OC)ccc1OC (configuration not stated)	7%
CCOc1ccccc1NC(=O)COc1ccc(S(=O)(=O)NC2CCCCC2)cc1	-10%

Screening results from PubChem BioAssay.
